Sa ugtP lethal = compounds lethal to S. aureus RN4220 ugtP deletion mutant. OD600 growth, 16 h; some inactives read as strong as hits. growth inhibition, % (concentration not given with the values). 0.54% of 330,000 active. AID 1259309;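 active = z-score under -3 and OD600 up to 0.15 on both plates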;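 note: plate controls were untreated wells for no effect and antibiotic for full effect; wells of about 80 µL received 100 nL stock; the first replicate is given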
BJeLR lethal = BJeLR cell viability loss | BJeLR (HRASV12) viability, CellTiter-Glo ATP luminescence, 48 h; reference of the scale not given here | inhibition, % (concentration not given with the values) | 0.17% of 300,000 active | AID 1554;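 active = replicate mean above 50%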;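 note: 50 nL library stock added to about 25 µL; numbers are from one replicate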
Bead autofluor = counter-screen for toxin protease inhibitors: compound fluorescence; AID 624483; fluorescence intensity (no concentration beside the values); compound autofluorescence counterscreen, microsphere flow cytometry; active compounds read high; 3.1% of 360,000 active;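 active = at least 3 SD above the mean of all compounds, about 16000 in these data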;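 note: 100 nL of 1 mM stock went into each well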
Mtb hypoxia rep = inhibitors of hypoxia-regulated fluorescent reporter in Mycobacterium tuberculosis. M. tuberculosis hypoxia-regulated fluorescent reporter, fluorescence. fluorescence inhibition, % (no concentration beside the values). 0.1% of 300,000 active. AID 1159583;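 active = 35 to 45% if threefold the growth effect, above 45% if 1.5-fold the growth effect; inactive = the rest, general growth blockers included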;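 note: wells of about 50 µL received 100 nL stock; 0% = vehicle wells and 100% = reference inhibitor wells; whole bacteria with a GFP reporter of the hypoxia response; strong numbers were not always called active; many hits fall short of the cut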
Sa RN4220 lethal = kills Staphylococcus aureus RN4220; S. aureus RN4220 growth, OD600, 16 h; inhibition, % (concentration not given with the values); 0.33% of 330,000 active; AID 1259311;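 active = z-score of -3 or lower and OD600 up to 0.18 on both plates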;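 note: plate controls were untreated cells for no effect and reference antibiotic for full effect; stock transfer was 100 nL into about 80 µL; one replicate is shown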
PrP 5UTR inh = inhibition of PrP 5' UTR reporter expression; 0.35% of 340,000 active; AID 488862; inhibition, % (concentration not given with the values); cell-based PrP 5' UTR mRNA reporter, plate reader;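 active = every replicate at 50% or more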;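 note: 0 = median of the neutral control wells; tested in H4 reporter cells; numbers are from one replicate; inactives centre near -14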
Mtb hypoxia rep growth = also measured in Mtb hypoxia rep; calls as there; growth inhibition, %; measured here: M. tuberculosis growth (absorbance);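 0% = vehicle and 100% = reference antibiotic; read after six days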
Numbers without * were called inactive; / = no result given. Outcome played no part in choosing rows. About 4% of those tested had a hit in this group.

Results follow in this order: Sa ugtP lethal, BJeLR lethal, Bead autofluor, Mtb hypoxia rep, Mtb hypoxia rep growth, Sa RN4220 lethal, PrP 5UTR inh
> Cc1ccccc1-n1c(=O)cc(N2CC(C)OC(C)C2)[nH]c1=O (stereo not given)
    12, -1, 9765, 6, 7, 3.3, -17
> CCC(Sc1nc2ccccc2c(=O)n1CC1CCCO1)C(=O)NCc1cccnc1 (stereo not given)
    3, -4, 20816*, -5, -3, 6.0, -7
> C=CCN1C(=O)c2oc3ccccc3c(=O)c2C1c1ccc(O)c(OC)c1 (stereo not given)
    -9, 8, 5163, 0, 5, 8.3, 8
> CCCNc1c(NS(=O)(=O)c2ccc(C3CCCCC3)cc2)c(=O)oc2ccccc12
    -20, 1, 4262, -1, -6, -0.1, 0
> COc1ccccc1C(=O)NCC(=O)NCCCN1CCOCC1
    4, /, 3753, 9, -6, 1.9, -28
> COCCN1CCN(C(=O)c2cc(COc3ccc(Cl)cc3OC)on2)CC1
    -2, -4, 4439, 0, 15, 0.2, -29
> CNCc1cn2cc(Cl)ccc2n1
    -5, 4, 2559, 1, -8, -6.8, 4
> O=c1cccc2c1c1cc[nH]c3ccc(=O)n2c31
    -20, 8, 5177, /, /, -3.7, -3
> N#CCc1ccc(NC(=O)/C=C/c2ccc([N+](=O)[O-])o2)cc1
    100*, 101*, 4639, /, /, 101*, 6
> O=C(Nc1c2c(nn1-c1ccc(Cl)cc1)CS(=O)(=O)C2)C1CC1
    -2, -10, 6688, 9, 12, 1.2, -10
> C=CCc1cc(C)ccc1OCCOCCN1CCN(C)CC1
    3, -4, 4208, 18, 4, 0.9, -10
> CCOC(=O)C(=O)Cc1nc2ccccc2s1
    3, 1, 5051, -5, -4, 5.6, -18
> CCN(CC)C(=O)[C@H]1CC(CC(=O)NCCCn2ccnc2)C(=O)N2CCc3c([nH]c4ccccc34)[C@]12C (stereo not given in full)
    5, /, 3983, 6, 12, 1.4, -28
> CC(C)(C)NC(=O)NC(=O)Cn1cc(C(F)(F)F)ccc1=O
    -1, 5, 9723, 2, -6, -3.2, -19
> C#CCn1ccc(O)c(Cc2c(F)cccc2Cl)c1=O
    5, 1, 4332, 4, 0, 5.7, -10
> Cc1ccc(OCC(=O)Nc2ccccc2N2CCCC2)c(C)c1
    16, -9, 2521, -4, -4, 5.2, -8
> CCN(CC)Cc1c(O)ccc2c(=O)c(Oc3ccccc3OC)coc12
    -5, -3, 2840, 2, 4, -3.2, -7
> CN(C)C(=O)c1cn(-c2ccccc2)nc1-c1cc2ccccc2o1
    3, 6, 2408, 9, 4, 2.3, -10
> CCOc1ccc(OCc2ccc(C(=O)N(C)c3ccccc3)o2)cc1
    1, 0, 3069, 5, 11, 4.0, -25
> COCCn1c(SCC(=O)Nc2sccc2C(N)=O)nc2cc(Cl)ccc2c1=O
    -15, 0, 4615, /, /, -8.6, -15
> COc1cccc(C2(C)NC(=O)N(CC(=O)c3cc(C)n(C4CC4)c3C)C2=O)c1 (stereo not given)
    0, /, 3928, -3, 7, 2.1, 7
> COc1cccc(C(=O)NCCNC(=O)c2ccco2)c1
    1, -3, 2937, -5, -6, 2.0, -10
> O=C(NCCO)c1ccc(-c2nnc(N3CCOCC3)c3ccccc23)cc1
    -2, 2, 2762, 2, 4, -0.3, -9
> CN(CCc1ccccc1)C(=O)c1ccc(NC(=O)Cc2cccc(NC(=O)C3CCN(C(=O)C4CCCCC4)CC3)c2)cc1
    -1, /, 3526, -5, 4, 3.9, -15
> NC(=N[N+](=O)[O-])N1CCN(C(=O)c2ccccn2)CC1
    18, /, /, 12, 6, 3.3, /
> COc1ccccc1-c1coc2c(CN3CCCC(C)C3)c(O)ccc2c1=O (stereo not given)
    -2, 11, 3724, -5, -1, 0.8, -17
> COC(=O)Cc1cc(=O)[nH]c(N=C(N)Nc2ccc(C)cc2C)n1
    -1, /, /, 2, 6, 6.4, /
> Cc1ccc(C=Nn2c(C)cc(C)c(C#N)c2=O)cc1
    0, /, /, -2, 11, 0.0, /
> COc1ccc2ccc(OC)c(/C=N/n3cnnc3)c2c1
    /, -2, 4354, /, /, /, -15
> CCc1cc2c(=O)n(CCC(C)C)c(=S)[nH]c2s1
    8, -4, 3816, 14, 9, 4.2, -14

For convenience, part of the list above:
Results follow in this order: Sa ugtP lethal, BJeLR lethal, Bead autofluor, Mtb hypoxia rep, Mtb hypoxia rep growth, Sa RN4220 lethal, PrP 5UTR inh
> CCOC(=O)C(=O)Cc1nc2ccccc2s1
    3, 1, 5051, -5, -4, 5.6, -18
> CCN(CC)C(=O)[C@H]1CC(CC(=O)NCCCn2ccnc2)C(=O)N2CCc3c([nH]c4ccccc34)[C@]12C (stereo not given in full)
    5, /, 3983, 6, 12, 1.4, -28
> CC(C)(C)NC(=O)NC(=O)Cn1cc(C(F)(F)F)ccc1=O
    -1, 5, 9723, 2, -6, -3.2, -19
> C#CCn1ccc(O)c(Cc2c(F)cccc2Cl)c1=O
    5, 1, 4332, 4, 0, 5.7, -10
> Cc1ccc(OCC(=O)Nc2ccccc2N2CCCC2)c(C)c1
    16, -9, 2521, -4, -4, 5.2, -8
> CCN(CC)Cc1c(O)ccc2c(=O)c(Oc3ccccc3OC)coc12
    -5, -3, 2840, 2, 4, -3.2, -7
> CN(C)C(=O)c1cn(-c2ccccc2)nc1-c1cc2ccccc2o1
    3, 6, 2408, 9, 4, 2.3, -10
> CCOc1ccc(OCc2ccc(C(=O)N(C)c3ccccc3)o2)cc1
    1, 0, 3069, 5, 11, 4.0, -25
> COCCn1c(SCC(=O)Nc2sccc2C(N)=O)nc2cc(Cl)ccc2c1=O
    -15, 0, 4615, /, /, -8.6, -15
> COc1cccc(C2(C)NC(=O)N(CC(=O)c3cc(C)n(C4CC4)c3C)C2=O)c1 (stereo not given)
    0, /, 3928, -3, 7, 2.1, 7
> COc1cccc(C(=O)NCCNC(=O)c2ccco2)c1
    1, -3, 2937, -5, -6, 2.0, -10
> O=C(NCCO)c1ccc(-c2nnc(N3CCOCC3)c3ccccc23)cc1
    -2, 2, 2762, 2, 4, -0.3, -9
> CN(CCc1ccccc1)C(=O)c1ccc(NC(=O)Cc2cccc(NC(=O)C3CCN(C(=O)C4CCCCC4)CC3)c2)cc1
    -1, /, 3526, -5, 4, 3.9, -15
> NC(=N[N+](=O)[O-])N1CCN(C(=O)c2ccccn2)CC1
    18, /, /, 12, 6, 3.3, /
> COc1ccccc1-c1coc2c(CN3CCCC(C)C3)c(O)ccc2c1=O (stereo not given)
    -2, 11, 3724, -5, -1, 0.8, -17
> COC(=O)Cc1cc(=O)[nH]c(N=C(N)Nc2ccc(C)cc2C)n1
    -1, /, /, 2, 6, 6.4, /
> Cc1ccc(C=Nn2c(C)cc(C)c(C#N)c2=O)cc1
    0, /, /, -2, 11, 0.0, /
> COc1ccc2ccc(OC)c(/C=N/n3cnnc3)c2c1
    /, -2, 4354, /, /, /, -15
> CCc1cc2c(=O)n(CCC(C)C)c(=S)[nH]c2s1
    8, -4, 3816, 14, 9, 4.2, -14

More compounds:
Results follow in this order: Sa ugtP lethal, BJeLR lethal, Bead autofluor, Mtb hypoxia rep, Mtb hypoxia rep growth, Sa RN4220 lethal, PrP 5UTR inh
> COc1ccc(OC)c(CN2CCCC(C(=O)c3ccccc3SC)C2)c1 (stereo not given)
    3, 16, 5286, 12, 14, 3.5, -13
> COc1ccc(CCNC(=O)CSc2nnc3ccc(-c4ccccn4)nn23)cc1
    -5, 4, /, -2, -5, -1.0, -13
> O=C(O)c1cc(S(=O)(=O)N(Cc2ccccc2)c2cccc(C(F)(F)F)c2)ccc1Cl
    2, 3, 3876, -7, -1, 11, -12
> COCCOC(=O)C(CC(=O)O)NCc1ccco1 (stereo not given)
    -5, 4, 5947, 10, 3, 2.0, -15
> COc1cccc(-n2c(C)cc(/C=C3\C(=N)N4N=C(CC(=O)N5CCOCC5)SC4=NC3=O)c2C)c1
    -11, 7, 5698, 2, 1, 4.5, -2
> CC(C)(C)c1ccc(C(=O)NCCOc2ccccc2F)cc1
    15, -4, 2960, -2, 10, -0.6, 50
> CC(CCc1ccccc1)NC(=O)CCN1N=C(c2ccccc2)CCC1=O (stereo not given)
    7, -6, 4653, 9, 4, 4.1, -6
> O=C(Nc1cn(-c2ccccc2)nc1-c1ccc(F)cc1)c1ccccc1
    /, -2, 10873, /, /, /, -36
> CCOCCn1c(CN2CCCC(C)C2)nc2c1c(=O)n(C)c(=O)n2C (stereo not given)
    -5, -10, 6357, 7, 7, -17, -6
> CCN(C(=O)CSc1nnc(COc2cccc(C)c2)o1)c1nc(C)cs1
    15, -7, 3182, -1, -1, 3.6, -7
> Cc1noc(C)c1S(=O)(=O)NCc1cccc(Cl)c1
    4, /, 4796, 4, -8, 5.2, -7
> CC(C)c1[nH]nc2c1C(C(C)C)C(C#N)=C(N)O2 (stereo not given)
    8, 1, 4084, 4, 5, 1.9, -18
> CC(=O)c1ccc(NC(=O)CCC(=O)OCC(=O)c2cccc([N+](=O)[O-])c2)cc1
    10, -1, 3666, 7, 8, 1.1, -24
> COc1ccc(-c2csc3ncnc(N4CCN(c5ccc(OC)cc5)CC4)c23)cc1
    5, -2, 5852, 10, 8, 1.1, -2
> O=C(Cc1cccs1)N/N=C/c1ccccn1
    /, -5, 3778, /, /, /, -10
> [O-][n+]1onc2c1CCC1N(O)C(c3ccccc3)CC21O (stereo not given)
    6, 1, 11352, 11, 6, 4.2, /
> COC(=O)c1nccnc1C(=O)Nc1ccccc1N1CCOCC1
    -7, 12, 5021, -7, 4, -4.5, -18
> O=C(Nc1ccc(-c2n[nH]c(=S)o2)cc1)c1ccccc1Br
    8, -6, 4091, 14, 15, 9.5, -5
> O=C(Nc1cccc(-n2cnnn2)c1)c1cc(Cl)ccc1Cl
    -6, 4, 4350, 0, 2, 0.5, -14
> CC(OC(=O)c1cccs1)C(=O)Nc1nc(-c2ccccc2)cs1 (stereo not given)
    0, -10, 2325, 3, -6, 1.8, -1
> O=C(Cc1ccccc1)Nc1ccc(F)cc1
    1, 3, 3853, 11, 4, 0.9, -12
> COC(=O)c1c(C)oc2ccc(NS(=O)(=O)c3cccs3)cc12
    -3, 1, 9292, 13, 14, 7.4, -12
> O=C(COC(=O)/C=C/c1ccc(Cl)cc1)NC1CCCC1
    -3, /, 3916, -7, -1, -3.1, -7
> COc1cccc(CNC(=O)CC2C(=O)NCCN2Cc2ccoc2)c1OC (stereo not given)
    1, -1, 3686, -4, 2, 6.6, -16
> CN(C)c1ccc(CCN2CCOCC2)cc1
    -4, -2, 3567, 6, 9, -14, -33
> CSc1cccc(NS(=O)(=O)c2cccc3nsnc23)c1
    -14, -11, 4642, 4, 6, 2.1, -22
> N#CCC(=O)N/N=C/c1ccc(OCC(=O)Nc2ccc(F)cc2)cc1
    /, 5, 2514, /, /, /, -3
> COc1ccc(C(N)=O)cc1NC(=O)c1cccc(F)c1
    1, 6, 2435, 5, -5, -13, -10
> O=C(NC1CCCC1)c1cccc(NC(=O)c2ccco2)c1
    -6, 8, 6287, 2, 16, -1.1, 2

Screening data deposited in PubChem BioAssay by several laboratories.
